CSC inhib: cancer stem cell viability inhibitors, primary screen, luminescence | cancer stem cell-like cells viability | inhibition, % at 7.5 µM | 1.1% of 300,000 active | AID 2717, 2010;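 active = mean at 75% or more and at least half the replicates too; inconclusive = mean and replicates disagree; tested in HMLE shEcad cells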;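 note: 0% = median of negative and 100% = median of positive control wells; the first replicate is given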
PABP FP inh: PABP poly(A) RNA binding inhibitors, primary screen, biochemical, fluorescence polarization, uHTS | inhibition, % at 35 µM | AID 2014, 2009 | 1% of 290,000 active;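 active = 50% or more with normal probe brightness, or confirmed in later tests; inconclusive = above 50% with abnormal brightness, or retests that disagree; inactive = below 50% or failed in later tests; about a fifth of its hits are not listed in these tables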;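 note: calls also rest on retests at 20 µM and on dose response follow-up; controls were probe without protein and protein plus probe with vehicle; some compounds called inactive have numbers as strong as hits; many hits fall short of the cut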
Target sequence (P11940 whole entry, looked up): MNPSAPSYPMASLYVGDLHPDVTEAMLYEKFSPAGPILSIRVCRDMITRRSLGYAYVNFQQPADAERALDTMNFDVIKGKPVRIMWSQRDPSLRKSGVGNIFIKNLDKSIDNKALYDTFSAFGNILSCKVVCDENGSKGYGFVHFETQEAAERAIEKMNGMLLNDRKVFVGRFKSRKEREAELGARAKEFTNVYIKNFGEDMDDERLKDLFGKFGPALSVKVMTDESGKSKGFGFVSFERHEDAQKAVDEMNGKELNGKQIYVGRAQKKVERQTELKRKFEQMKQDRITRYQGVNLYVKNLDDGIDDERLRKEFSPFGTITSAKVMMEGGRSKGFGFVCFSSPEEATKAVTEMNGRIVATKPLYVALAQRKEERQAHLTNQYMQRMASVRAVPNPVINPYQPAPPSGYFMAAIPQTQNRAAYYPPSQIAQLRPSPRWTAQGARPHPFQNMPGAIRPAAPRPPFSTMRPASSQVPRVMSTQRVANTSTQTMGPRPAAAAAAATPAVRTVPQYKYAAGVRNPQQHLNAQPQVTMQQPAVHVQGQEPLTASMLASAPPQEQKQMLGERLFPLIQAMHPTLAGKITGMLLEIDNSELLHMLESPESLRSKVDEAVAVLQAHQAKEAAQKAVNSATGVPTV
Rce1 inhib: yeast Rce1p protease inhibitors, primary screen, biochemical, fluorescence, cell-free homogeneous; CAAX prenyl protease 2 (Saccharomyces cerevisiae (strain ATCC 204508 / S288c)), Q03530; yeast membranes, quenched prenylated peptide cleavage fluorescence; calls only; 0.27% of 290,000 active;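 active = fall in fluorescence gain of 50% or more versus controls, with final raw signal at or below 3038400; inconclusive = same 50% fall but final raw signal above 3038400; inactive = fall in fluorescence gain under 50%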;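 note: plate controls were neutral control wells for no effect and wells lacking membranes for full effect; tested at 10 µM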
eIF4H inh: human eIF4H binding inhibitors, primary screen, translation initiation inhibitor project, biochemical, uHTS, fluorescence polarization; eIF4H fluorescence polarization binding assay; 0.94% of 290,000 active; Eukaryotic translation initiation factor 4H (Homo sapiens), Q15056; inhibition, % at 35 µM;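 active = 50% or more with normal probe brightness, or confirmed in later tests; inconclusive = above 50% with abnormal brightness, or retests that disagree; inactive = below 50% or failed in later tests; about a fifth of its hits are not listed in these tables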;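 note: calls also rest on retests at 20 µM and on dose response follow-up; 0% = protein and probe with vehicle and 100% = probe without protein; strong numbers were not always called active; many hits fall short of the cut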
HIV Env fusion: inhibitors of HIV-1 Env-driven cell-cell fusion, primary screen, HeLa-JRFL effector, CEM21 target cells, luciferase; AID 651610, 2012; 1.1% of 360,000 active; inhibition, % at 12.3 µM;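 active = mean replicate inhibition score of at least 50 and every replicate individually at or above 50; inconclusive = only one of the two criteria met; inactive = mean below 50 and not all replicates reaching 50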;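 note: 0% = plate neutral controls and 100% = maraviroc near 300 nM; one replicate is shown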
MT1-MMP act inh: blockers of MT1-MMP proenzyme processing, primary screen, HT1080 RFP-PRO-GFP cells, GFP/RFP fluorescence. Matrix metalloproteinase-14 (Homo sapiens), P50281. GFP/RFP ratio fluorescence, overnight; percent of plate control window, DMSO zero. GFP/RFP ratio change, % at 20 µM. 0.061% of 360,000 active;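 active = GFP/RFP ratio change of at least 30% with cell ATP level not reduced by more than half and red fluorescence within 50% of control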; note: strong numbers were not always called active
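Test system: HT1080 RFP-PRO-GFP cells; Benchmarks: DMSO and RFP-L50D-GFP cell wells; Timing: cells overnight before dosing, compound overnight, 37 °C, 5% CO2; Compound: one 20 µM compound dose with 1% DMSO; Read-out: GFP/RFP fluorescence ratio.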
Yeast UUG start: modulators of yeast start codon fidelity, primary screen, whole organism, S. cerevisiae, single point, plate reader; activity score, % at 18.7 µM; 0.13% of 350,000 active; S. cerevisiae UUG-firefly luciferase reporter, luminescence/redox ratio;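 active = replicate mean at a twofold rise or more, about +100% in these data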;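 note: firefly luciferase made from a UUG start codon reports start codon fidelity; reporter light over untreated wells divided by growth signal over untreated wells; some hits fall short of that in this replicate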
eIF4H inh retest: second read-out of eIF4H inh, no call of its own (marks repeat the call); inhibition, %; compound at 20 µM; confirmation average;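 mean of two retest wells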
PABP FP inh retest: recorded beside PABP FP inh, whose call it bears; inhibition, %; compound at 20 µM; confirmation repeats;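 mean of two retest wells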
MT1-MMP act inh RFP: second read-out of MT1-MMP act inh, no call of its own (marks repeat the call); RFP signal change, %; measured here: RFP expression control read;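 0 = vehicle wells; hits needed this value within 50% of zero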
Active calls of the source: *; i = inactive; ? = inconclusive; · = not tested or not shown.

SMILES	CSC inhib	PABP FP inh	Rce1 inhib	eIF4H inh	HIV Env fusion	MT1-MMP act inh	MT1-MMP act inh RFP	Yeast UUG start	others
COCCCNc1nc2ccccc2nc1NS(=O)(=O)c1ccc(OC)cc1	-6	14	i	-3	11	0	2	21
Cc1ccc(-c2sc(-c3ccccc3)nc2CC(=O)Nc2ccccc2F)cc1	6	-3	i	-3	1	-15	-20	2
COc1cc2cc(CCCOC(=O)CCC(=O)O)oc(=O)c2cc1OC	12	·	·	·	3	3	6	-2
COc1ccc(N2C(=O)CC(Sc3nccc(C)n3)C2=O)c(OC)c1 (stereo unspecified)	·	·	·	·	-6	1	4	-12
COCCNC(=O)[C@H]1N2C(=O)c3c(ccc(OC)c3OC)C2SC1(C)C (stereo partly specified)	-7	10	i	-5	-4	-10	1	11
O=C(Cc1ncc(C(F)(F)F)cc1Cl)N1CCN(c2ccccn2)CC1	-2	3	i	7	3	5	-1	-11
COc1ccc2oc(=O)c(C(=O)Nc3cccc(C(C)=O)c3)cc2c1	-19	-6	i	-14	-50	1	-4	6
COc1ccccc1NC(=O)Cn1cnc2c(oc3nc4c(cc32)CCCC4)c1=O	-12	-2	i	0	-3	4	-1	-9
O=c1[nH]c2ccc([N+](=O)[O-])cc2[nH]1	·	·	·	·	10	3	5	-16
NS(=O)(=O)c1cccc(NC(=O)c2cncc(Br)c2)c1	-4	2	i	4	13	-3	0	-18
O=C(c1ccc(CSCc2ccccc2F)o1)N1CCN(c2ccc(N3CCOCC3)nn2)CC1	30	24	i	15	-1	3	-4	-6
O=C1CCC[C@@H]2[C@H](Cc3ccccc3)[C@@H](O)C[C@@H]3CCN1[C@@H]32	·	·	·	·	-18	1	-6	-2
COc1ccc(C(=O)NCCCc2ccccc2)cc1	6	·	i	·	-86	3	2	-1
COc1ccc(Br)cc1C(=O)Nc1ccc(C(=O)NCC(C)C)cc1	2	-2	i	-8	-2	0	-3	-2
O=C1CC/C=C\C[C@@H](CC(=O)N(CCO)Cc2ccccc2)C(=O)N2CCC[C@H]2CO1	-7	·	·	·	-5	3	0	2
OCCC1CN(Cc2cccc3nonc23)CCN1Cc1ccsc1 (stereo unspecified)	-27	-5	i	5	-2	-4	5	-8
CC(=O)Nc1ccc(NS(=O)(=O)c2cc([N+](=O)[O-])ccc2C)cc1	-9	-4	i	-4	13	2	1	·
Cc1ccccc1NC(=O)c1ccccc1-c1ccccc1	-6	2	i	-4	7	-2	3	-7
COc1ccc(C(=O)Cn2c(C(=O)/C=C/c3ccccc3)nc3ccccc32)cc1	49	10	i	-1	24	-20	-17	-8
CSc1nnc(CNC(=O)c2ccccc2)n1-c1ccc(F)cc1	6	-4	·	-4	8	0	2	3
Nc1ccccc1SC(C[N+](=O)[O-])c1ccccc1 (stereo unspecified)	?	1	i	11	·	-2	-1	-23
CCCCCC(=O)Nc1cccc2ccccc12	7	-1	i	0	-2	0	4	·
CCc1ccccc1Nc1nc(N)nc(CSCC(=O)Nc2ccc(C)c(C)c2)n1	-12	22	i	-4	71*	4	1	-20
O=C(Nc1ccnn1C1CCN(C(=O)c2cccnc2)CC1)c1cccc(F)c1	·	·	·	·	10	2	6	-12
COc1ccc(C(=O)Nc2cccc(NC(C)=O)c2)cc1	·	·	·	·	-5	1	3	-9
COc1cccc(C2CC(c3cccc(OC)c3)n3nc(N)nc3N2)c1 (stereo unspecified)	-7	-4	i	-16	-2	12	4	-24
CCOC(=O)N1CCN(c2nc(C(F)(F)F)nc3c(C)cc(C)cc23)CC1	4	-6	i	-8	-9	-8	-14	-27
CCOc1ccc2nnc(-c3ccc(Br)cc3)n2n1	-17	-10	·	1	-199	-4	-3	-17
CC1=CS(=O)(=O)CC1Sc1nc(C)n[nH]1 (stereo unspecified)	32	22	i	-10	-7	-2	4	·
COc1ccc(-n2nc(C(=O)NCC(=O)NC3CCCCC3)c3ccccc3c2=O)cc1	-21	-3	i	-1	4	-1	-3	-4

In the list so far, three contain a nitro group on carbon:
SMILES	CSC inhib	PABP FP inh	Rce1 inhib	eIF4H inh	HIV Env fusion	MT1-MMP act inh	MT1-MMP act inh RFP	Yeast UUG start	others
O=c1[nH]c2ccc([N+](=O)[O-])cc2[nH]1	·	·	·	·	10	3	5	-16
CC(=O)Nc1ccc(NS(=O)(=O)c2cc([N+](=O)[O-])ccc2C)cc1	-9	-4	i	-4	13	2	1	·
Nc1ccccc1SC(C[N+](=O)[O-])c1ccccc1 (stereo unspecified)	?	1	i	11	·	-2	-1	-23

Following part.
SMILES	CSC inhib	PABP FP inh	Rce1 inhib	eIF4H inh	HIV Env fusion	MT1-MMP act inh	MT1-MMP act inh RFP	Yeast UUG start	others
O=C(N/N=C/c1ccccc1F)c1ccccc1OCc1ccccc1	-7	15	i	-3	-96	-3	-2	-15
O=C(COc1cccc(NC(=O)c2ccccc2)c1)c1ccccc1	42	-5	i	-3	9	7	-8	·
CC1CCc2c(sc(NS(=O)(=O)c3ccccc3)c2C(=O)OC(C)C)C1 (stereo unspecified)	-6	-3	·	61	·	-12	4	-10	eIF4H inh retest=-3;PABP FP inh retest=5
O=C(NNC(=O)C1CC1c1ccccc1)c1ccccc1F (stereo unspecified)	1	-8	i	-10	-38	-1	3	·
CN(C)CCCN1CC(C(=O)O)CC1=O (stereo unspecified)	-9	6	i	-10	·	1	7	-18
Cc1ccc(C2=NN(C(=O)c3cccs3)C(c3ccccc3O)C2)cc1 (stereo unspecified)	2	-7	i	-11	13	0	-3	·
O=C(Cn1ccc(C(F)(F)F)n1)Nc1cccc(S(=O)(=O)N2CCCCC2)c1	-4	-1	i	-4	16	6	-1	·
CCc1ccccc1-n1c(SCC(=O)c2c(N)n(C3CC3)c(=O)[nH]c2=O)nnc1N1CCOCC1	6	·	·	·	-6	-4	0	9
CCCN1C(=O)C2(C(C(=O)c3ccc(C)o3)=C(O)C(=O)N2CCCOC)c2ccccc21 (stereo unspecified)	-5	0	i	2	-3	1	5	·
FC(F)(F)c1ccccc1CN1CCCC(N2CCN(c3ccccc3)CC2)C1 (stereo unspecified)	6	9	i	9	21	5	-2	1
Cc1ccc(/C=N/NC(=O)c2nnn(-c3nonc3N)c2CSc2ccccc2)cc1	2	-4	i	5	3	5	3	·
COCC(=O)Nc1ccc(C(=O)Nc2ccccc2Cl)cc1	13	-2	i	-7	·	·	·	·
COc1cc([C@@H]2[C@H]3CNCC=C3C(C#N)=C(N)C2(C#N)C#N)ccc1OC(C)C	5	91*	i	73*	·	-19	7	-5
Oc1cc(CNCc2ccccc2)c(O)cc1CNCc1ccccc1	·	·	·	·	11	-17	16	-21
CCCCc1cc(=O)oc2cc(OC(C)C(=O)NCc3ccccn3)c(Cl)cc12 (stereo unspecified)	22	3	i	-11	5	-1	-3	1
CCN(CC)S(=O)(=O)c1ccc(N2CCCC2)c(NS(=O)(=O)c2ccc([N+](=O)[O-])cc2)c1	-10	-10	i	-5	-16	2	3	-11
CNC(=O)CN(c1cccc2ccccc12)S(C)(=O)=O	-3	-1	i	-6	-9	1	0	-49
Cc1cccn2c(=O)nc(SCC(=O)N3CCN(c4ccccc4)CC3)nc12	-11	·	i	·	-6	-1	0	3
COc1cccc(NC(=O)Cc2csc(NC(=O)Nc3ccccc3OC)n2)c1	-11	·	i	·	-1	4	-1	2
CC(C)N1CCN(C2CSCCSC2)CC1CCO (stereo unspecified)	-4	5	i	-2	-26	1	8	-7
CC1(C)CC(=O)C(C(C2=C(O)CC(C)(C)CC2=O)c2ccc(Cl)c([N+](=O)[O-])c2)C(=O)C1 (stereo unspecified)	-7	8	i	2	-7	3	5	·
O=C(NC1CCCc2c1cnn2-c1ccc(F)cc1F)c1ccccn1 (stereo unspecified)	15	-2	i	4	13	-3	-7	·
CCOC(=O)c1nn(-c2ccccc2C)c(=O)cc1OCC(=O)N1CCN(c2ccccc2)CC1	2	·	i	·	12	1	-5	·
CC(Sc1nnc(Nc2ccccc2F)s1)C(=O)NC1CC1 (stereo unspecified)	17	·	·	·	-2	-2	-1	-13
COc1ccc(N(CC(=O)O)S(=O)(=O)c2ccccc2[N+](=O)[O-])c(OC)c1	-10	11	i	1	-11	-1	2	·
Cc1occc1C(=O)Nc1ccccc1NC(=O)c1ccoc1C	-28	·	i	·	-95	-4	-4	198*
COc1cc(/C=C2\CCC/C(=C\c3ccc(O)c(OC)c3)C2=O)ccc1O	100*	4	i	-1	-10	1	-7	-19
COc1ccc(S(=O)(=O)NCCSc2ccc(Cl)cc2)cc1OC	-8	-12	i	-15	·	-2	-4	2
COc1ccccc1NS(=O)(=O)c1cccc2nsnc12	-4	3	i	3	13	0	3	·
C/C(=N\O)c1c(C)c2ccccc2n1C	13	6	i	1	-50	-2	-1	-14
Oc1ccccc1Nc1nc(NCC2CCCO2)c2ccccc2n1 (stereo unspecified)	-2	-11	i	-4	-71	5	-5	·
O=C(/C=C/c1cccc(F)c1)OCC(=O)N1CCCc2ccccc21	-9	·	i	·	1	0	1	9
COc1cccc(CNC(=O)c2cccnc2Sc2ccccc2)c1	-2	9	i	-6	-19	-4	-2	-9
CN1CCC[C@H]1CCNC(=O)c1c(-c2ccsc2)sc2ccccc12	-15	·	·	·	-6	9	6	-19
Cc1ccc(OCC(=O)N(C)CC(=O)Nc2cccc(F)c2)cc1	-8	11	i	-5	·	-1	2	4
C/C(=N\NC(=S)NCc1ccccc1)c1ccc(Cl)cc1	42	-6	i	-4	5	0	-5	-15
Cc1ccc(N2/C(=N/c3nc(C)cc(C)n3)NC(=O)CC2C(=O)O)cc1 (stereo unspecified)	-11	-10	i	-4	·	6	1	-14
Cc1cc(C)c(NC(=O)c2oc3ccccc3c2COc2ccccc2)c(C)c1	33	14	i	-3	0	-16	-9	·
CCSc1nnc(NC(=O)c2ccc(S(=O)(=O)N(C)C)cc2)s1	-11	3	i	-10	14	4	-1	·
CCCS(=O)(=O)C/C(N)=N/OC(=O)c1ccccc1Cl	-6	9	i	-1	2	0	3	-3
COc1cc(S(=O)(=O)N(Cc2cccs2)CC2CCCO2)ccc1-n1cnnn1 (stereo unspecified)	-6	-16	i	-3	·	2	-2	-7
Cc1cc(NC(=O)c2cccs2)ncc1NC(=O)C(C)C	14	17	i	8	-17	1	3	-30
COc1ccc(CCC(=O)NCC2CCCCC2)cc1OC	-8	11	i	9	0	-2	3	-12
Cc1csc(=O)n1CCC(=O)N(C)Cc1c(F)cccc1Cl	-17	·	·	·	0	2	1	-9
CCC(Sc1nc(-c2ccccc2)c(-c2ccccc2)[nH]1)C(=O)O (stereo unspecified)	-2	4	i	-8	-14	4	4	-24
CC(=O)Nc1ccc(NC(=O)C(C)n2nc([N+](=O)[O-])c(Br)c2C)cc1 (stereo unspecified)	-8	-1	i	-2	·	-3	1	-12
CCOC(=O)c1cc(OC(=O)c2cccnc2)n(-c2ccccc2)n1	3	12	·	1	·	·	·	·

From PubChem
